Bioassay records deposited in PubChem BioAssay by National Center for Advancing Translational Sciences (NCATS).
Vaccinia Venus: inhibitors of vaccinia virus (Venus reporter). Vaccinia virus Venus reporter expression, fluorescence. Potency, µM (titrated, usually from 36.5 µM), for the others: top-dose activity change, negative = inhibition, usual class: inhibitors. 0.46% of 330,000 active; active means well fitted inhibition curve with a large enough effect; inconclusive means small, poorly fitted or top-dose-only effect; inactive means no such curve, though single readings can be large or run the other way; tested in A549 cells; note: nearly all actives have a fitted effect of over 30% in size; inactives centre near -10
Vaccinia mCherry: inhibitors of vaccinia virus infection (mCherry reporter signal) | Vaccinia virus mCherry reporter infection, fluorescence; about a quarter of the inactives have no number | Potency, µM (top dose mostly 36.5 µM), for the others: at the top dose activity change, negative = inhibition, usual class: inhibitors | 0.63% of 310,000 active; active = well fitted inhibition curve with a large enough effect; inconclusive = small, poorly fitted or top-dose-only effect; inactive = no such curve, though single readings can be large or run the other way; tested in A549 cells; note: nearly all actives have a fitted effect of over 35% in size; inactives centre near -10
Starred values were filed as active, the others as inactive; i = inactive; ? = inconclusive; / = not tested or not shown; & = joins results of further samples; [ ] = dose if it differs, or a comment. % is set by controls: 0 for no effect and ±100 for the full control effect; potency is the fitted concentration of half-maximal effect.

1) C=C(C)C(=O)N1CC2(CC(c3cccc(NC(=O)c4ccccc4)c3)=NO2)C[C@@H]1C(N)=O (stereo not given in full)
2) CCN(Cc1ccc2c(c1)OCO2)C(=O)/C=C/c1cccc(Br)c1
3) COc1cccc(/C=N/NC(=O)c2cc3c(OC)c(OC)ccc3[nH]2)c1OC
4) COC(=O)Nc1ccc(S(=O)(=O)N(CCO)CC(F)(F)C(F)F)cc1
5) CCN(C(=O)CN1CCN(C)CC1)c1c(N)n(Cc2ccccc2)c(=O)[nH]c1=O
6) O=C(NNc1ccc([N+](=O)[O-])cc1)C1CC2CCCC(C1)C2=O (stereo not given)
7) Cc1oc(-c2cccc(Cl)c2)nc1CS(=O)(=O)CC(=O)NC1CC1
8) COc1cccc(N=C2SC(C(=O)Nc3ccc(F)cc3)CC(=O)N2C)c1 (stereo not given)
Assay by compound,1,2,3,4,5,6,7,8
Vaccinia mCherry,i,-5%,-7%,-12%,-12%,-5%,-14%,-17%
Vaccinia Venus,-4%,10%,-25%,-11%,2%,-7%,-15%,-19%

9) CN1CCN(CCP(=O)(c2ccccc2)c2ccccc2)CC1
10) COc1ccc(OC)c(NC(=O)c2nc(SCc3ccc(F)cc3)ncc2Cl)c1
11) Cc1nc(C(F)(F)F)ccc1C(=O)N1CCC1(C)C(=O)NS(=O)(=O)c1cccc(C#N)c1 (stereo not given)
12) Cc1cc(C)c2[nH]c(=S)cc(C)c2c1
13) CC(=O)Nc1ccc(NC(=O)C(C)OC(=O)CNS(=O)(=O)c2cccc(Cl)c2)cc1 (stereo not given)
14) COc1ccccc1N1CCN(/N=C/C=C/c2ccccc2[N+](=O)[O-])CC1
15) COC(=O)Cc1ccc(OCC(=O)NC2CCCC2)cc1
16) COc1ccc(NC(=O)Cn2cc(C(=O)c3ccccc3OC)c(=O)c3ccc(C)nc32)cc1OC
Assay by compound,9,10,11,12,13,14,15,16
Vaccinia mCherry,-11%,-10%,i,-10%,i,-26%,-11%,-12%
Vaccinia Venus,-6%,-1%,-5%,-11%,-2%,-6%,-11%,-10%

Sorted by formula weight (high to low): part of the list above.
16) COc1ccc(NC(=O)Cn2cc(C(=O)c3ccccc3OC)c(=O)c3ccc(C)nc32)cc1OC
11) Cc1nc(C(F)(F)F)ccc1C(=O)N1CCC1(C)C(=O)NS(=O)(=O)c1cccc(C#N)c1 (stereo not given)
13) CC(=O)Nc1ccc(NC(=O)C(C)OC(=O)CNS(=O)(=O)c2cccc(Cl)c2)cc1 (stereo not given)
10) COc1ccc(OC)c(NC(=O)c2nc(SCc3ccc(F)cc3)ncc2Cl)c1
8) COc1cccc(N=C2SC(C(=O)Nc3ccc(F)cc3)CC(=O)N2C)c1 (stereo not given)
7) Cc1oc(-c2cccc(Cl)c2)nc1CS(=O)(=O)CC(=O)NC1CC1
15) COC(=O)Cc1ccc(OCC(=O)NC2CCCC2)cc1
Assay by compound,16,11,13,10,8,7,15
Vaccinia mCherry,-12%,i,i,-10%,-17%,-14%,-11%
Vaccinia Venus,-10%,-5%,-2%,-1%,-19%,-15%,-11%

Next part.
17) CCOc1ccc(N2C(=O)CC(N(CCc3ccc(S(N)(=O)=O)cc3)C(C)=O)C2=O)cc1 (stereo not given)
18) C=CCOC(=O)C(=O)/C=C/c1c(C)n(C)n(-c2ccccc2)c1=O
19) COc1cc(/C=C/C(=O)OCC(=O)NC(=O)C2COc3ccccc3O2)ccc1OC(F)F (stereo not given)
20) CCc1cccc(NC(=O)Cn2c(C(=O)OC)cc3occc32)c1
21) Nc1c(-c2nc(-c3ccccc3)no2)nnn1CC(=O)Nc1ccccc1
22) Clc1cccc(-c2nc3c4ccccc4ccn3c2CC2CCCCC2)c1
23) CCNC(=S)N/N=C(\C)c1ccc2ccccc2c1OC(F)F
24) COc1cc(NC2c3ccccc3C(=O)N2Cc2ccccc2Cl)cc(OC)c1OC (stereo not given)
Assay by compound,17,18,19,20,21,22,23,24
Vaccinia mCherry,-27%,i,-1%,-9%,-1%,23%,-20%,i
Vaccinia Venus,-2%,-9%,6%,-5%,6%,9%,-7%,-16%

25) COCOCCn1cc(CN2CCS(=O)(=O)N(Cc3ccc(-c4ccc(F)cc4)cc3)C(C(C)C)C2=O)nn1 (stereo not given)
26) Cc1ccc(NC(=O)OCCN2CCN(Cc3ccccc3)CCC2=O)cc1
27) NC(=O)C1CCN(C(=O)CN(c2cccc(Cl)c2)S(=O)(=O)c2ccccc2)CC1
28) CNC(=O)Oc1cccc(-c2cn3cc(OC(=O)NC)ccc3n2)c1
29) O=C(Nc1ccc(F)cc1)C1CCCO1 (stereo not given)
30) CCCSc1nsc(N)n1
31) CCCCN(C)C(=O)c1ccc(CS(=O)(=O)c2ccccc2C)o1
32) CSc1nc2ccccc2cc1/C=C(\C#N)c1cccc(Cl)c1
Assay by compound,25,26,27,28,29,30,31,32
Vaccinia mCherry,i,-4%,i,-21%,-14%,-19%,11%,/
Vaccinia Venus,?,-7%,-11%,-10%,0%,-17%,-4%,?

33) CC(=O)N1CCCc2ccc(NC(=O)c3ccc(OC(C)C)cc3)cc21
34) Cc1cc(C(=O)N/N=C/c2cc(Br)ccc2OC(=O)c2ccccc2)n[nH]1
35) O=C(CSc1ccc(-c2ccco2)nn1)N1CCCCCC1
36) CCOC(=O)c1c(C)[nH]c(C)c1C(=O)COC(=O)/C=C/c1cccc([N+](=O)[O-])c1
37) O=C(O[C@@H]1OC2COC(=O)c3cc(O)c(O)c(O)c3-c3c(cc(O)c(O)c3O)C(=O)O[C@@H]([C@H]1O)[C@@H]2O)c1cc(O)c(O)c(O)c1
38) COc1ccc(C(=O)Nc2ccc3[nH]c(-c4cccc(OC)c4)cc(=O)c3c2)cc1
39) O=C(NCC1CCCCC1)c1ccc(F)cc1Cl
40) Cc1ccc(Cl)cc1N1CCN(S(=O)(=O)c2c(C)nc3scc(C)n3c2=O)CC1
Assay by compound,33,34,35,36,37,38,39,40
Vaccinia mCherry,-10%,/,-3%,-8%,-4%,i,-4%,-13%
Vaccinia Venus,-2%,?,-11%,-29%,-7%,-19%,-14%,-1%

41) O/N=C(\Cn1ccnc1)c1ccccc1
42) Cc1cccc(N2C(=O)N3[C@@H]4c5ccccc5OC[C@@H]4[C@@H](c4ccccc4)[C@]3(C)C2=O)c1
43) O=C(NNC(=O)c1cc(-c2ccncc2)nc2ccccc12)c1ccccc1F
44) O=C(NCCOCc1ccccc1)C(c1ccccc1)c1ccccc1
45) O=C(Cc1cccs1)Nc1nnc(SCC(=O)N2CCCCC2)s1
46) CCOC(=O)c1c(-c2ccccc2)oc2ccc(O)c(CN3CCN(C)CC3)c12
47) COc1ccc(CCNC(=O)COC(=O)COc2ccc(C#N)cc2)cc1
48) CCC(NC(=O)Cc1c(C)c2ccc(OC)c(C)c2oc1=O)C(=O)NC(Cc1ccc(Cl)cc1)C(=O)O (stereo not given)
Assay by compound,41,42,43,44,45,46,47,48
Vaccinia mCherry,i,-4%,-18%,i,-21%,?,i,-7%
Vaccinia Venus,-4%,-10%,-1%,-2%,-15%,?,-7%,-4%

Compound profiles, from the list above. Order of screens: Vaccinia mCherry | Vaccinia Venus
COc1ccc(OC)c(NC(=O)c2nc(SCc3ccc(F)cc3)ncc2Cl)c1 in the list: -10% | -1%
Cc1cc(C(=O)N/N=C/c2cc(Br)ccc2OC(=O)c2ccccc2)n[nH]1 in the list: / | ?
CCCCN(C)C(=O)c1ccc(CS(=O)(=O)c2ccccc2C)o1 in the list: 11% | -4%
O/N=C(\Cn1ccnc1)c1ccccc1 in the list: i | -4%
O=C(NNC(=O)c1cc(-c2ccncc2)nc2ccccc12)c1ccccc1F in the list: -18% | -1%

Next part:
49) COc1cc(CNCCCO)ccc1OCC(=O)NC(C)(C)C
50) CCc1ccccc1NC(=O)CCOc1ccccc1
51) CCc1cccc2sc(N(CCCN3CCOCC3)C(=O)CS(=O)(=O)c3ccccc3)nc12
52) Cc1ccccc1OCC(=O)NCC(=O)OCC(=O)c1ccc(-c2ccccc2)cc1
53) Nc1c(C(=O)N/N=C/c2ccc(Cl)cc2)cnn1-c1ccccc1
54) COc1ccccc1OCC(=O)N1CCN(S(=O)(=O)c2ccc(Cl)cc2)CC1
55) CC(C)CC1Nc2ncnc(N3CCN(c4ccccn4)CC3)c2N(Cc2ccccc2)C1=O (stereo not given)
56) O=C(c1ccccc1S(=O)(=O)NCc1ccccc1)N1CCCCC1
Assay by compound,49,50,51,52,53,54,55,56
Vaccinia mCherry,-1%,-8%,i,-11%,-8%,-19%,-8%&6%,3%
Vaccinia Venus,-10%,5%,-23%,5%,-5%,-16%,-20%&2%,-10%

57) C[C@]12C=CC(=O)C=C1CC[C@@H]1C2CC[C@]2(C)OC(=O)CCC12 (stereo not given in full)
58) Cc1ccc(NC(=O)Cn2c(=O)oc3cc(S(=O)(=O)N4CCCCCC4)ccc32)cc1Cl
59) Cc1cc(F)ccc1NC(=O)C1CCCN(S(=O)(=O)c2ccc3c(c2)CCCC(=O)N3)C1 (stereo not given)
60) Cc1nc(C)n(CC(C)C(=O)N2CCN(S(=O)(=O)c3ccccc3)CC2)n1 (stereo not given)
61) CCc1ccc(-c2cn(C3CCCCC3)c(=S)[nH]2)cc1
62) O=C(NCCN=C1NS(=O)(=O)c2ccccc21)c1ccccc1
63) C/C=C(\C)CN1CCCC(CO)(Cc2ccccc2)C1 (stereo not given)
64) Cc1ccccc1-c1noc(-c2cc(C(C)C)[nH]n2)n1
Assay by compound,57,58,59,60,61,62,63,64
Vaccinia mCherry,-8%,?,2%,i,-22%,i,i,-16%[7.34 µM]
Vaccinia Venus,-5%,?,6%,1%,-24%,0%,-16%,-7%[7.34 µM]

65) C#CCOC(=O)C1=CCCN(C)C1
66) O=C(c1ccc(S(=O)(=O)c2cccc(Cl)c2)c([N+](=O)[O-])c1)N1CCN(Cc2ccccc2)CC1
67) CC1CCC2=NN(C(=O)c3ccco3)C(O)(C(F)(F)F)C2C1 (stereo not given)
68) Cc1ccc2nsnc2c1NC(=O)Cc1ccc(Cl)cc1
69) O=C(NC1CCCCCC1)C1CCCN(S(=O)(=O)c2cccs2)C1 (stereo not given)
70) O=C(CNC(=O)Cc1ccccc1)NCC(=O)OCC(=O)c1ccc(Cl)cc1
71) Cc1ccccc1Nc1nnc(C)c(=O)n1N
72) Cc1ccc(S(=O)(=O)NCc2ccccc2)cc1C(=O)N(C)Cc1ccccc1F
Assay by compound,65,66,67,68,69,70,71,72
Vaccinia mCherry,-23%,-3%,-10%,i,/,i,-13%,-13%
Vaccinia Venus,-11%&-9%,-16%,-6%,-6%,-23%,-16%,-5%,-13%

73) CCCCC[C@H](O)/C=C/[C@H]1[C@H](O)CC(=O)[C@@H]1CCCCCCC(=O)O
74) Cc1ccc2c(cnn2C(=O)CCCC(=O)NCc2cccc(F)c2)c1
75) COc1ccc(-c2csc(NC(=O)C3CSC4(C)CCC(=O)N34)n2)c(OC)c1 (stereo not given)
76) COc1ccc(C2CC(c3ccccc3)=NN2C(=O)c2cccs2)cc1 (stereo not given)
77) Cc1ccc(NC(=O)CN(C)C(=O)Cc2c(Cl)cccc2Cl)cc1
78) COc1ccc(NS(=O)(=O)c2cc(N)ccc2N2CCCC2)cc1
79) Oc1cccc(-c2csc(C(O)(c3ccccc3)C(F)(F)F)n2)c1 (stereo not given)
80) Cn1c(O)c(/C=C2/C=CC=N2)c(=O)[nH]c1=O
Assay by compound,73,74,75,76,77,78,79,80
Vaccinia mCherry,-20%[3.33 µM],6%,?,-15%,-5%,?,i,i
Vaccinia Venus,-14%[3.33 µM],-6%,?,-20%,-6%,-25%,-24%,25%

81) Fc1ccc(-c2nc3nc4ccccc4nc3n2Cc2ccco2)cc1
82) CC1(C)CC(=O)C(N=Nc2cccnc2)=C(O)C1
83) Cc1ccc(S(=O)(=O)N(CC(=O)NCCSc2ccccn2)c2ccccc2F)cc1
84) CC(=O)c1cc2c(cc1NC(=O)CSc1nnc(C)s1)OCO2
85) Cc1ccc(NC(=O)C(=O)c2cn(CC(=O)N3CCCCC3)c3ccccc23)cc1
86) CCOC(=O)N1CCN(CCC(=O)Nc2ccc(OC(F)(F)F)cc2)CC1
87) Cc1cc(N2CCCC2=O)ccc1S(=O)(=O)N1CCOCC1
Assay by compound,81,82,83,84,85,86,87
Vaccinia mCherry,-20%,-22%,?,/,-13%,-25%,1%
Vaccinia Venus,-19%,-11%,?,-16%,-15%,-29%,3%
